# YopH inh = blocks Yersinia enterocolitica YopH tyrosine phosphatase | fluorescence Ex485/Em525 | inhibition, %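 (about 10 µM by stock and volumes)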 | AID 898 | 0.16% of 140,000 active;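 active = inhibition of 50% or more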;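 also: controls were vehicle for no effect and minimum signal wells for full effect; inactives centre near -20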
# Arbovirus inh = blocks arbovirus infection | arbovirus infection cell-based antiviral screen | inhibition, % at 10 µM | 0.37% of 200,000 active;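 active = inhibition from about 30%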;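 also: bluetongue infection of BSR cells; cell survival read as ATP light after 72 h; 0% = infected wells without compound and 100% = uninfected wells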
# Mtb growth = M. tuberculosis H37Rv growth inhibitors, H37Rv strain (AID 1626); 0.95% of 220,000 active; inhibition, % at 10 µM, or IC50 in µM where a hit was titrated; M. tuberculosis H37Rv growth inhibition; higher % means a stronger effect;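 active = confirmed in a dose series; inconclusive = inhibition above 80% but not taken into the dose series; inactive = below 80% or under 30% at every dose of the series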;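 also: bacteria incubated seven days before Alamar blue readout; 0% = bacteria only wells and 100% = bacteria with antibiotic wells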
# Mtb bLac sens = beta-lactam sensitization of Mtb H37Rv. M. tuberculosis H37Rv growth with meropenem, percent inhibition; hits of this screen are not shown here. inhibition, % at 25 µM. 0.27% of 330,000 active. AID 434955;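 active = about 74% or more and at least 40 points above the plate without the antibiotic, then above 30% in a dose series; inconclusive = first-round hits that could not be retested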;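 also: growth measured after seven days incubation then overnight dye step; 0% = bacteria only wells and 100% = bacteria with antibiotic; twin plates without the antibiotic show which effects depend on it; some results filed as inactive read as strong as hits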
# RecA splice inh = Mtb RecA intein splicing inhibition; P9WHJ3; cell-free RecA intein splicing, fluorescence; inhibition, %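 (about 9 µM by stock and volumes)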; 0.75% of 290,000 active; AID 2221; in the data active = inhibition above about 30%; inconclusive = no clear call, values can overlap the other calls;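 also: 0% = vehicle wells and 100% = reference inhibitor control wells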
# Target sequence (P9WHJ3 whole entry, looked up, canonical isoform): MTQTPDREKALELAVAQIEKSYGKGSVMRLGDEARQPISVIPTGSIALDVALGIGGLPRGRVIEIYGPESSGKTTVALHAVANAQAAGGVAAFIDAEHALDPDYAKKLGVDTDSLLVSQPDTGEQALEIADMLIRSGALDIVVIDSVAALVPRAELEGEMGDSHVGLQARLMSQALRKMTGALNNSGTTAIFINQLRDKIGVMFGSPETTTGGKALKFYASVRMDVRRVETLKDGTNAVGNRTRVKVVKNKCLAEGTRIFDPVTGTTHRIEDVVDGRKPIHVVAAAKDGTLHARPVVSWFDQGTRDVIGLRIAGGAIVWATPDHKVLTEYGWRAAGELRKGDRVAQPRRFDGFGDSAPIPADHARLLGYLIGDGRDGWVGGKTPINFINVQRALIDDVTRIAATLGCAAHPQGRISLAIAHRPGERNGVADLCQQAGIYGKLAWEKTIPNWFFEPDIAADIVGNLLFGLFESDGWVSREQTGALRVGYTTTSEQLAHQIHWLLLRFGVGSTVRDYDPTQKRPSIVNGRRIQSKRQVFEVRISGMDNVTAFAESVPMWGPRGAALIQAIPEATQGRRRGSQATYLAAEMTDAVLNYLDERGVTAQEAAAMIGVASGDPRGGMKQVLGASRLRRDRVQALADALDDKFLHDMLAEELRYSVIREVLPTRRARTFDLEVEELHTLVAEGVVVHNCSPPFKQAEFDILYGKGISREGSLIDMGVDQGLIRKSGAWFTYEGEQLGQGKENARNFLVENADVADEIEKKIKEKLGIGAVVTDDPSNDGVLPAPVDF
# Starred values were filed as active, the others as inactive; ? = inconclusive; / = not tested or not shown; & = joins results of further samples. The list is partial; rates above refer to the full screens.
SMILES,YopH inh,Arbovirus inh,Mtb growth,Mtb bLac sens,RecA splice inh
CN(C)c1nc(-c2cccnc2)nc(-c2ccc(Cl)cc2)c1C#N,/,-9.6,7.8%,-1.6,1.0
N#Cc1nc(-c2ccccc2)oc1NCCN1CCCCC1,12.1,3.4,-8.4%,0.3,1.6
Nc1cccc(C(=O)Nc2ccco2)c1,-5.8,-5.7,5.0%,-18.8,-0.6
O=C(CCCl)Nc1nc2c(s1)CCc1ccccc1-2,/,/,/,83.2,3.8
COc1ccc(NS(=O)(=O)c2ccc(O)c(C(=O)OCC(=O)N3CC(C)OC(C)C3)c2)cc1 (configuration not stated),-16.6,9.5,-0.5%,-8.8,1.2
COc1ccc(NC(=S)N2CCCC(c3nc4ccc(C)cc4[nH]3)C2)c(OC)c1 (configuration not stated),/,-1.1,2.9%,-2.4,-4.2
CCOC(=O)c1sc2nc(C)nc(Nc3ccccc3)c2c1C,/,4.9,-0.4%,5.7,0.2
CN(c1ccc(C(=O)NCc2ccncc2)cc1)S(=O)(=O)c1ccc(Cl)cc1,/,/,/,5.5,1.9
O=c1c2cn[nH]c2[nH]c(=S)n1-c1ccccc1Cl,/,8.3,0.4%,-7.0,1.8
C[C@H](NC(=O)c1ccc(Br)cc1)C(=O)NCc1ccc(S(N)(=O)=O)cc1,/,-9.3,-0.5%,-5.6,/
COc1ccc(CC(=O)Nc2ccc(-c3cn4ccccc4n3)cc2)cc1,-21.3,-7.9,-8.1%,-1.1,0.2
O=[N+]([O-])c1ccc(Cl)c(S(=O)(=O)/N=C(/c2ccccc2)N2CCOCC2)c1,/,1.9,-5.1%,-1.4,-0.2
Cc1nc(SCC(C)C)[nH]c(=O)c1Cc1ccccc1,-32.6,1.5,-3.0%,-1.7,-2.8
CCc1nnc(NC(=O)c2ccc(OC)cc2)s1,/,-0.9,2.9%,-4.0,0.2
O=S(=O)(c1ccccc1Cl)N1CCCC1c1nc(-c2cccc(Cl)c2)no1 (configuration not stated),-18.8,5.5,-6.9%,-0.6,16.5
COc1cc(=O)[nH]c(SCC(=O)Nc2nc3c(s2)CCCC3)n1,/,/,/,1.7,-0.3
O=C(O)CCCC(=O)N1N=C(c2c(-c3ccccc3)c3cc(Cl)ccc3[nH]c2=O)CC1c1cccs1 (configuration not stated),-24.0,0.2,11.2%,-2.9,13.8
CCC(=O)NNc1ncnc2c1cnn2-c1cccc(C)c1,/,22.6,9.6%,-4.1,-1.0
CN(C(=O)c1ccccn1)C1(C(=O)NC2CCCCC2)CCCCC1,-21.8,6.6,-1.4%,0.7,-0.2
CC(=O)Nc1ccc(Cl)cc1C1COC(=O)C1=N (configuration not stated),-26.1,1.4,1.8%,2.8,-4.9
CC(C)c1nc(SCc2ccccn2)c2c(=O)n(C)c(=O)n(C)c2n1,/,-9.7,2.3%,-3.6,0.8
CC(C)C1Oc2ccccc2N(CC(=O)N(C)C2CCCCC2)C1=O (configuration not stated),/,/,/,-8.9,1.3
O=C(O)CCNS(=O)(=O)c1ccc2c(c1)OCCCO2,/,1.2,-3.9%,-5.6,-0.4
CCC1S/C(=N/N=C/c2cccs2)NC1=O (configuration not stated),-40.1,2.4,9.7%,52.5,-3.7
O=C(Cc1cn2ccsc2n1)OCc1ccccc1,-39.8,-0.6,-3.1%,-14.4,10.4
COC(=O)COc1ccc(S(=O)(=O)N2CCOCC2)cc1,-26.2,0.2,0.6%,-5.0,1.3
CCn1cc(C(=O)N[C@H](C(=O)NCCCN2CCOCC2)C(C)C)c(=O)c2cc3c(cc21)OCO3,/,/,/,5.0,-1.1
O=C(CSc1nnc(NC(=O)c2c(F)cccc2F)s1)Nc1ccc(F)cc1,/,36.9*,-6.2%,-5.9,-4.0
CCC(C(=O)OCC(=O)Nc1cccc(C(C)=O)c1)c1ccccc1 (configuration not stated),/,4.5,0.9%,1.1,1.2
CN(C)c1ccc(P(=O)(OCc2ccccc2)C(O)c2ccccc2)cc1 (configuration not stated),/,/,-13.8%,0.1,-2.1
CCOC(=O)c1cnc(SCC(=O)Nc2nnc(CC)s2)nc1N,-30.1,-1.3,-7.4%,1.6,0.9
C=C(C)COc1ccc(-c2n[nH]c(C)c2-c2ccccc2)c(O)c1,-6.4,-38.8,-5.7%,34.8,0.3
CCOc1nc(Nc2ccccc2)nc(OCC)n1,/,/,/,-7.2,0.8
O=C(CN1C(=O)CSc2ccc(S(=O)(=O)N3CCCCC3)cc21)NCc1cccnc1,-20.3,8.3,-7.0%,2.2,-1.1
CCC(C)[C@H](NC(=O)NCc1cccc(OC)c1)C(=O)O (some centres not stated),-5.0,0.8,-8.8%,-3.7,1.4
CO/N=C(/C(=O)N[C@@H]1C(=O)N2C(C(=O)O)=CCS[C@H]12)c1cnc(N)s1,/,/,/,80.4,-8.7
Clc1ccc2oc(SCc3cccnc3)nc2c1,/,/,/,54.2,2.1
CC(=O)c1c(C)[nH]c(C(=O)OCC(=O)N(C)C)c1C,-9.9,6.5,-4.1%,-2.1,0.6
Cc1ccc2c(c1)C(=O)c1ccccc1CS2=O (configuration not stated),-19.5,-6.4,3.9%,-6.6,-1.7
Cc1ccccc1CSc1nnc(-c2ccccn2)n1N,-10.2,2.5,-11.6%,-22.7,-1.4

# Fetched one by one from above:
SMILES,YopH inh,Arbovirus inh,Mtb growth,Mtb bLac sens,RecA splice inh
CC(=O)c1c(C)[nH]c(C(=O)OCC(=O)N(C)C)c1C,-9.9,6.5,-4.1%,-2.1,0.6
O=C(Cc1cn2ccsc2n1)OCc1ccccc1,-39.8,-0.6,-3.1%,-14.4,10.4

# Continuation.
SMILES,YopH inh,Arbovirus inh,Mtb growth,Mtb bLac sens,RecA splice inh
COc1ccccc1NS(=O)(=O)c1cc(NC(=O)c2cc(=O)[nH]c3ccccc23)ccc1N1CCOCC1,/,/,17.7%,-6.0,7.6
O=C(Cc1cc(=O)[nH][nH]1)N/N=C/c1c(Cl)cccc1Cl,-18.9&0.1,4.5&-12.4,-4.8%&3.7%,6.5&-8.7,69.9*
Cc1ccc(OCC(=O)Nc2ccc(S(=O)(=O)Nc3ccccn3)cc2)cc1C,/,-4.5,-0.3%,-6.6,0.6
CC1CC(C)CN(C(=O)CSc2nnc(-c3ccco3)o2)C1 (configuration not stated),/,/,/,0.8,2.4
Fc1cccc(C2CCCCN2Cc2nc(C3CC3)no2)c1 (configuration not stated),/,-2.9,-7.0%,-2.3,-0.9
CCOC(=O)c1ccccc1CN1C(=O)c2ccccc2S1(=O)=O,/,/,/,-13.3,-3.0
O=C(N/N=C/c1cccc(OC(=O)c2cccc(Br)c2)c1)c1cccnc1,/,/,/,7.1,2.4
CCOC(=O)C1CCCN(C2CC(=O)N(c3ccc(C(C)C)cc3)C2=O)C1 (configuration not stated),/,6.9,-3.9%,-7.7,-1.9
O=C(Nc1ccccc1O)c1ccc(NC(=O)C2CC2)cc1,/,/,/,-0.4,-0.2
Cc1ccc(S(=O)(=O)NC2=NCN(CCOC(=O)c3ccc([N+](=O)[O-])cc3)CN2)cc1,-8.7,6.8,2.4%,?,1.2
COc1ccc(N2CCN(S(=O)(=O)c3ccc4c(c3)NC(=O)C(C)C(=O)N4)CC2)cc1 (configuration not stated),/,/,/,9.0,-1.9
Cc1[nH]c2ccccc2c1/C=C(/C#N)C(=O)NC(C)C,/,-0.8,-19.3%,-1.5,3.6
CCOC(=O)CC1COc2ccccc2N1C(=O)c1cccc([N+](=O)[O-])c1 (configuration not stated),/,/,/,-1.9,0.4
CSc1cccc(NC(=O)CSc2ccccc2)c1,3.6,-9.3,62.0%,87.5,5.2
COCCNC(=O)Cn1c(=O)n(CCCCCC(=O)NCc2ccc3c(c2)OCO3)c(=O)c2sccc21,/,-1.3,5.3%,-1.7,1.0
Cc1noc(C)c1C(=O)NC(C)c1ccc2c(c1)OCO2 (configuration not stated),-40.1,-1.4,94.2%,5.9,-1.2
S=C(NC1CC2CCC1C2)N1CCN(c2cccc(Cl)c2)CC1 (configuration not stated),/,4.2,-5.0%,0.1,2.1
CCN1CCN(CCC(=O)Nc2cccc(OC)c2)CC1,-95.0,15.5,1.1%,0.6,-2.5
CC(c1ccccc1)C(NC(=O)OCC1c2ccccc2-c2ccccc21)C(=O)O (configuration not stated),/,/,/,1.1,1.3
CC(C)N1OC2CC1c1nc3ccccc3n1C2 (configuration not stated),/,/,-2.0%,-12.1,-8.2
Cc1ccc(C(NC(=O)c2ccccc2S(C)(=O)=O)c2ccccc2)cc1 (configuration not stated),/,/,/,-0.1,1.4
COc1cccc(C(=O)NC2CCN(CC(=O)NCc3ccccc3OC)CC2)c1,-16.6,2.6,-7.2%,-4.1,0.3
COc1cc(N2N=C(c3ccccc3)CC2c2ccccc2)c(C=O)cc1C=O (configuration not stated),/,/,/,-1.8,-1.6
C=CCNC(=O)/C(=C\c1cccc([N+](=O)[O-])c1)NC(=O)c1ccccc1,-16.5,-6.1,-9.7%,-4.8,-1.2
Cc1cc(C)cc(NC(=O)CSc2nnc(-c3ccccc3Br)o2)c1,-27.8,-7.5,-8.3%,?,/
O=[N+]([O-])c1cc(S(=O)(=O)NC2=NCCCCC2)ccc1NCC1CCCCC1,/,-17.1,4.6%,4.8,1.3
COc1ccc(C(=O)COc2ncnc3cc(Cl)ccc23)cc1,/,/,-4.0%,0.5,1.1
N#C/C(=C\c1ccncc1)c1nc2c(s1)CCCC2,/,5.5,9.2%,5.5,-64.0
CCOC(=O)c1cnc2ccc(C(=O)OC)cc2c1NCc1ccco1,-21.4,6.5,-4.3%,/,0.2
COc1cc(/C=N/NC(=O)c2ccc(-c3ccccc3)cc2)cc(OC)c1OC,-22.0,0.6,-13.3%,-4.0,-2.0
NC(=O)COC(=O)/C=C/c1ccc2ccccc2n1,/,4.5,?,100.0,-0.3
CC(=O)c1c(NC(=O)c2ccccc2)[nH]c(-c2ccccc2)nc1=S,/,-4.4,-2.2%,9.3,3.2
COc1cc(C=O)ccc1OCc1c(C)noc1C,10.3,-2.2,-2.1%,2.1,0.9
CC(C)C(=O)Nc1c(-c2ccccc2)c(=O)c2ccccc2n1C,/,/,-5.5%,1.1,-0.2
O=C(Nc1ccncc1)Nc1cc(Cl)ccc1Cl,/,/,/,9.6,2.0
O=C(C[n+]1ccc(-c2nnc3n2CCC3)cc1)c1ccc(Cl)c(Cl)c1,-27.9,0.7,4.0%,0.4,2.5
CN1CCc2nc(SCC(=O)OC(C)(C)C)c(C#N)cc2C1,/,-2.4,/,15.4,8.6
O=C(CSc1ccccc1C(=O)NCCCN1CCCC1=O)NCc1ccco1,4.0,4.5,0.3%,-1.6,-2.7
COc1ccc(C(=O)NNC(=O)C(=O)NCc2ccccc2)cc1,/,-2.9,-3.5%,6.6,2.8
O=C(NC(=S)Nc1cccc(Cl)c1N1CCCCC1)c1ccc2c(c1)OCCO2,-14.2,2.3,53.2%,22.7,1.6
COCCC1CCCCN1C(=O)c1cc(COc2ccc(-n3cncn3)cc2)on1 (configuration not stated),/,/,/,-1.6,1.5
CCOc1ccccc1CNS(=O)(=O)c1ccc2c(c1)C(C)(C)C(=O)N2C,/,/,/,3.5,3.6
O=C(CCNC(=O)Cn1cnc2ccccc2c1=O)NCC1COc2ccccc2O1 (configuration not stated),-39.1,8.5,-1.8%,-4.2,-1.7
COc1ccc(C(=O)O)cc1S(=O)(=O)Nc1cccc(C)c1,-15.8,5.2,-2.7%,-1.5,-10.8
O=C(Cn1cnc2c(nnn2-c2cccc(Cl)c2)c1=O)NCc1ccccc1,/,-12.0,/,-4.9,-9.9
Cc1cccc(NC(=O)c2c([N+](=O)[O-])c(C(C)(C)C)nn2C)c1,-27.4,-1.9,-7.5%,-2.7,1.1

# Grouped by structure, the entries above containing two or more sulfur atoms (seven)
SMILES,YopH inh,Arbovirus inh,Mtb growth,Mtb bLac sens,RecA splice inh
COc1cc(=O)[nH]c(SCC(=O)Nc2nc3c(s2)CCCC3)n1,/,/,/,1.7,-0.3
CCC1S/C(=N/N=C/c2cccs2)NC1=O (configuration not stated),-40.1,2.4,9.7%,52.5,-3.7
O=C(CSc1nnc(NC(=O)c2c(F)cccc2F)s1)Nc1ccc(F)cc1,/,36.9*,-6.2%,-5.9,-4.0
CCOC(=O)c1cnc(SCC(=O)Nc2nnc(CC)s2)nc1N,-30.1,-1.3,-7.4%,1.6,0.9
O=C(CN1C(=O)CSc2ccc(S(=O)(=O)N3CCCCC3)cc21)NCc1cccnc1,-20.3,8.3,-7.0%,2.2,-1.1
CO/N=C(/C(=O)N[C@@H]1C(=O)N2C(C(=O)O)=CCS[C@H]12)c1cnc(N)s1,/,/,/,80.4,-8.7
CSc1cccc(NC(=O)CSc2ccccc2)c1,3.6,-9.3,62.0%,87.5,5.2
